# NPYLR7 agonist = activates Aedes aegypti NPYLR7 receptor. HEK293T NPYLR7/Galpha15, GCaMP6s calcium fluorescence. AID 1259423. hit rate 0.15% among 270,000. activation, % at 10 µM; in the data active = activation above about 40%;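 note: 0% = vehicle and 100% = reference agonist at the receptor; some compounds past the cut are filed as inactive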
# NPYLR7 agonist max-min = second read-out of NPYLR7 agonist, no call of its own (marks repeat the call); activation, %; measured here: Max-Min RFU normalised activation; some inactives read as strong as hits;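 span of the calcium signal over five minutes; 0% = vehicle and 100% = native peptide agonist; compound fluorescence can raise it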
# Numbers without * were called inactive; & = joins results of further samples. This is a subset (hit frequency here may not be typical).
item	molecule	NPYLR7 agonist max-min	NPYLR7 agonist
1	O=C(c1cccc(F)c1)N(CCN1CCOCC1)Cc1cc(Cl)ccc1OCc1nc(CO)cs1	11	9
2	CSCc1noc(CN2CCCC2c2nc3ccc(F)cc3[nH]2)n1 (configuration not stated)	0	0
3	CCn1c(C)nnc1S(=O)(=O)Cc1cccc(OC)c1	0	2
4	CC1CCN(S(=O)(=O)c2c[nH]c(=O)[nH]c2=O)CC1	2	8
5	Cc1sc2nc(C(C)C)nc(N3CCN(S(=O)(=O)c4ccc(Cl)cc4)CC3)c2c1C	4	-9
6	Cc1ccc(C2CC(c3ccc(C)c(C)c3)=Nc3ncnn32)cc1 (configuration not stated)	3	6
7	COCCN(Cc1ccc(OC)cc1)c1c(C)nc2ccc(C(=O)NCc3ccccc3OC)cn12	-10	-6
8	CCN(Cc1cc(Cl)c2c(c1)OCCCO2)C1CCS(=O)(=O)C1 (configuration not stated)	11	15
9	O=C(O)CCN(Cc1ccccc1)c1nc(Cc2ccccc2)ns1	0	4
10	C=CCOCC(O)CN(Cc1ccc2c(c1)OCO2)Cc1ccc(C)s1 (configuration not stated)	20	19
11	CCN(CC)c1ccc(NC(=O)c2sc3nc(-c4ccc(OC)cc4)cn3c2C)cc1	-6	-6
12	Cc1[nH]ncc1C(=O)N1CCCC(C(=O)c2ccc(-c3ccccc3)cc2)C1 (configuration not stated)	-1	1
13	C[C@H](C(=O)NCCCn1ccnc1)N1Cc2ccc(Nc3ncccn3)nc2C1=O	4	8
14	Cc1cc(C)n(CC(=O)NNC(=O)COc2ccc(F)cc2Br)n1	-14	-10
15	CCc1ccccc1CN1CCCn2cccc2C1c1cc([N+](=O)[O-])ccc1Cl (configuration not stated)	19	17
16	Cc1noc(C)c1CC(=O)C(C#N)c1nc2ccccc2n1C(F)F (configuration not stated)	2	10
17	Cc1ccc(-c2csc(-n3[nH]c(C)c(N=Nc4ccccc4O)c3=O)n2)cc1	-9	-5
18	c1ccc(Nc2nc(-c3ccccc3)[n+](-c3ccccc3)s2)cc1	14	16
19	N[C@@H](C(=O)NC1CCN(Cc2cccnc2)CC1)c1ccccc1	-6	-4
20	Cc1cnc(C)c(-c2cc(O)c3c(c2)CN(Cc2ncccc2C)CCO3)n1	0	5
21	Cc1nc(NCCc2ccncc2)c2ccsc2n1	-7	0
22	CCCNC(=S)Nc1ccccc1Br	-4	-2
23	CC(C)CCNC(=O)C1(C)CCN1Cc1csc2ccccc12 (configuration not stated)	-3	-1
24	CN1CC2(CCCN(Cc3nccn3C)CC2)OC1=O (configuration not stated)	3	4
25	CSCc1ccc(C(=O)NC2CCCc3c2cnn3-c2ccccn2)o1 (configuration not stated)	3	11

# Among those listed so far, 4 have an NH in an aromatic ring:
item	molecule	NPYLR7 agonist max-min	NPYLR7 agonist
2	CSCc1noc(CN2CCCC2c2nc3ccc(F)cc3[nH]2)n1 (configuration not stated)	0	0
4	CC1CCN(S(=O)(=O)c2c[nH]c(=O)[nH]c2=O)CC1	2	8
12	Cc1[nH]ncc1C(=O)N1CCCC(C(=O)c2ccc(-c3ccccc3)cc2)C1 (configuration not stated)	-1	1
17	Cc1ccc(-c2csc(-n3[nH]c(C)c(N=Nc4ccccc4O)c3=O)n2)cc1	-9	-5

# Other results follow.
item	molecule	NPYLR7 agonist max-min	NPYLR7 agonist
26	COCCn1c(=O)[nH]c(=O)c2c(C)cc(-c3ccc(F)cc3)nc21	3&-8	2&-8
27	COc1ccc(S(=O)(=O)N2CCC(Cc3ccccc3)CC2)cc1N1CCN(C(=O)c2ccc(Cl)c(Cl)c2)CC1	17	18
28	N#CCCN(CC1CCCO1)C(=O)/C=C/c1ccoc1 (configuration not stated)	1	8
29	CCCCOc1ccc(-c2nc(C=Nc3cccnc3)c(O)o2)cc1	4	1
30	COc1ccc(NC(=O)CSc2ccc3nnc(-c4cccnc4)n3n2)c(OC)c1	-3	-2
31	CCc1ccc(S(=O)(=O)N2CCN(c3ncnc4c3nnn4-c3ccc(OC)cc3)CC2)s1	-19	-11
32	N#Cc1c(CN2CCOCC2)c(C=O)n2ccccc12	3	4
33	Cc1ccccc1Cn1cc(NC(=O)c2nc3ncccn3n2)cn1	-2	3
34	O=C(c1ccoc1)N1CCOc2c(O)cc(-c3cccc(Cl)c3)cc2C1	1	3
35	COc1cccc(C(=O)N2CCC(n3c(-c4ccccc4)nc4ccc(F)cc43)CC2)c1C	18	30
36	COc1ccc(S(=O)(=O)Nc2cccc(-c3nc(C)c(C)o3)c2)cc1Cl	2	4
37	Cc1ccc(SCC(=O)NNC(=O)c2cncn2-c2ccc(F)cc2)cc1	7	2
38	CCOC(=O)C1(CCOC)CCN(C(=O)c2cc(OC)c(OC)c(OC)c2)CC1	6	5
39	COc1ccc(-n2nnc3c(=O)n(Cc4cccc5ccccc45)cnc32)cc1OC	-8	0
40	Fc1ccc(N=c2scc(-c3ccccc3)n2CCOc2ccccc2)cc1	-2	5
41	O=S(=O)(C=C(NNc1ccccc1)c1ccccc1)c1ccccc1	6	3
42	CC1(C(=O)Nc2ccc3c(c2)OCCO3)CCN1Cc1ccc(-c2ccccc2)o1 (configuration not stated)	1	7
43	CC(C)c1ccc(NC(=O)CC2CSc3nc4c(cnn4-c4ccccc4)c(=O)n32)cc1 (configuration not stated)	-2	1
44	O=C(c1ccc(Cl)s1)N(CCCn1ccnc1)c1nc2c(F)cccc2s1	-6	-2
45	c1cc(CNc2ccc(-c3nc(C4CC4)no3)cn2)no1	-1	1
46	Cc1sc2ncnc(SCC(=O)Nc3ccccc3F)c2c1C	-4	-1
47	CCn1c(C2CCN(c3ncccc3C(F)(F)F)CC2)nn(C)c1=O	2	5
48	CN=c1scc(-c2cccs2)n1N=Cc1ccc(O)c(O)c1O	-7	-2
49	CCN=c1scc(C)n1/N=C\c1cc(Br)ccc1OC	-2	0
50	Cc1ccc2nc(SCC(=O)N(C(C)C)C(C)C)nc(=O)n2c1	1	4

# One compound at a time, as listed above.
# `COCCn1c(=O)[nH]c(=O)c2c(C)cc(-c3ccc(F)cc3)nc21` as listed: NPYLR7 agonist max-min = 3&-8; NPYLR7 agonist = 2&-8
# `CCN=c1scc(C)n1/N=C\c1cc(Br)ccc1OC` as listed: NPYLR7 agonist max-min = -2; NPYLR7 agonist = 0

# Going on with the list.
item	molecule	NPYLR7 agonist max-min	NPYLR7 agonist
51	COc1ccc(C(=O)N[C@@H]2CCCCC2NC(=O)C2CCCN(C(=O)c3cccc([N+](=O)[O-])c3)C2)cc1 (some centres not stated)	34	40
52	COC(=O)C1CCCCCCC1NC(=O)Nc1cccc(F)c1 (configuration not stated)	-8	0
53	CC(NC(=O)c1nccnc1N)c1ccccc1Br (configuration not stated)	3	6
54	COC(=O)C1(C)CC1(c1ccccc1)c1ccccc1 (configuration not stated)	26	1
55	Cc1ccc(Cc2nc(CSc3ccoc3C)cs2)cc1	3	-11
56	COc1cccc2sc(N(Cc3ccco3)C(=O)c3cc(C)n(C)n3)nc12	-6	-7
57	Cc1ccccc1COc1coc(CN2CCc3ccccc32)cc1=O	3	3
58	COC(=O)[C@@H](NCC(=O)Nc1cnccn1)c1ccccc1	10	22
59	O=C(CCC1CCCC1)N1CCSC1c1cccc(C(F)(F)F)c1 (configuration not stated)	2	-6
60	CC1(C)C2(C(=O)N3CCN(CCCOC(c4ccc(Cl)cc4)c4ccc(Cl)cc4)CC3)CC[C@@]1(C)C(=O)O2	-1	3
61	CC1SC(c2cccc(C(F)(F)F)c2)N(CCCN(C)C(=O)c2ccccc2Cl)C1=O (configuration not stated)	9	1
62	CC1CCCc2sc3nc(SCCN4CCCC4)n(N)c(=O)c3c21 (configuration not stated)	8	6
63	CCCCOC(=O)c1cccc(NC(=O)CCN2C(=O)c3ccccc3C2=O)c1	-6	0
64	O=C(CN1CCOC1=O)N1Cc2cnn(Cc3ccc(F)cc3)c2C1	-1	1
65	COc1ccc(CN(CCc2c[nH]c3ccccc23)C(=O)CN(CC(C)C)C(=O)c2cccc(C(F)(F)F)c2)cc1OC	11	13
66	COc1ccc(-c2cc(N)n(-c3ccc(C(=O)N4CCC(NC(=O)OC(C)(C)C)C4)cc3)n2)cc1 (configuration not stated)	-16	-10
67	O=C(Nc1ccccc1Oc1cccnc1)C1CCCN(Cc2ccc3nonc3c2)C1 (configuration not stated)	3	15
68	O=C1NCCN(C2CCCC2)C1CC(=O)N1CCN(c2ccccc2)C(=O)C1 (configuration not stated)	2	4
69	CCNC(=O)N1CCN(c2cc(Oc3ccccc3Cl)ncn2)CC1C (configuration not stated)	12	10
70	O=C(Nc1nnc(C2CCCCC2)s1)c1cccs1	-13	-6
71	O=[N+]([O-])c1ccc2c(c1)CN(S(=O)(=O)c1cccs1)CC2	3	-3
72	S=c1[nH]nc(SCc2cccs2)s1	4	3
73	CCOC(=O)C(c1cc(OC)ccc1OC)C1C=CC(NC(=O)c2sc3ccccc3c2Cl)C1 (configuration not stated)	-13	-3
74	C=CCCC(=O)N1CCc2c(cc(-c3ccccc3Cl)c(=O)n2Cc2ccncc2)C1	5	17
75	COc1cc(OC)cc(C(=O)N(CC(=O)N(CCc2c[nH]c3ccccc23)Cc2ccccc2)CC(C)C)c1	21	22
76	CN(C(=O)CNc1ccc(C#N)cc1)c1nccs1	-2	0
77	O=C(CN1CCN(S(=O)(=O)c2ccc3c(c2)CCC3)CC1)Nc1cccc(Cl)c1Cl	0	0
78	CN(C)CCn1ccc2c(nnc3c(-c4ccccc4)cnn32)c1=O	6	6
79	Cc1c(C)n2c3c(=O)n(Cc4ccc(Cl)cc4)c(=O)n(C)c3nc2n1CCOCCO	18	-1
80	Cc1noc(-c2ccc(OC(F)(F)F)cc2)c1C(=O)NCCCn1ccnc1	15	16
81	CN(Cc1ccccc1N1CCCCC1)c1cn[nH]c(=O)c1Cl	6	7
82	CN1CCC(N(C)C=C(Cl)C(=O)C(F)(F)F)CC1	2	3
83	Cc1cc(C)c(S(=O)(=O)NCC2CC2)c(C)c1NS(C)(=O)=O	-10	3
84	COc1ccccc1/C=C/c1nc2ccccc2c(=O)o1	-3	0
85	CCCNC[C@H](O)COc1ccccc1C(=O)CCc1ccccc1	-13	3
86	C=CCN(CC(=O)N1CCc2sccc2C1COc1ccc(Cl)c(C)c1)C(=O)NCCC (configuration not stated)	6	0
87	CC1CN(C(=O)CCCSc2nnc(Cc3ccccc3)n2-c2ccccc2)CCN1C(=O)COc1ccc(Cl)cc1 (configuration not stated)	29	23
88	CC(NC(=O)C1CCN(CCOc2ccc(Br)cc2)CC1)c1cccc2ccccc12 (configuration not stated)	-14	-13
89	COCCN(CCC(=O)O)c1nc(Cc2cccc(OC)c2)ns1	-14	-8
90	Cc1ccc(NC(=O)c2c(-c3ccccc3Cl)noc2C)c(C)c1	-13	-5
91	CCN(CC)CCN(C(C)=O)c1nc2cc(C)cc(C)c2s1	-9	-4
92	CN(C)c1cccc(Nc2ccc(-c3ccc(CCC(=O)O)cc3)cn2)c1	-2	3
93	CC(Cn1cncn1)C(=O)N1CCC(Cc2cccc(C(=O)O)c2)CC1 (configuration not stated)	-3	0
94	CCOC(=O)C1CCCN(C(=O)c2coc(CN(Cc3cccc(Cl)c3)Cc3cccc(C(F)(F)F)c3)n2)C1 (configuration not stated)	-1	14
95	CCN(C)C1=C(c2c(-c3ccccc3)[nH]n(-c3ccc(F)cc3)c2=O)C(=O)N(Cc2ccco2)C1=O	39	22
96	COC(=O)C(=O)N1CCc2ccccc2C1c1ccc(C)cc1 (configuration not stated)	8	-2
97	CC(C)CNC(=O)C1(C)CCCN1C(=O)c1cc(-c2ccccc2)cs1 (configuration not stated)	3	7
98	COc1cccc(CN2CCN(C)C(C(=O)O)C2)c1F (configuration not stated)	8	9
99	O=C(CCC1CCCC1)N1CCC2(CC1)SCCN2C(=O)/C=C/c1ccccc1	18	9
100	O=c1c2ccccc2n(Cc2cc(=O)n3ccccc3n2)c(=O)n1CC1CCCO1 (configuration not stated)	-2	1

# Following part:
item	molecule	NPYLR7 agonist max-min	NPYLR7 agonist
101	CCN(CC)C(=O)Oc1ccc2c(ccn2Cc2cccc(Cl)c2)c1-c1cc(C)cc(C)c1	12	23
102	CCCn1cc(C(=O)Nc2ccc(NC(=O)C(C)(C)C)c(C)c2)c(C)n1	-1	14
103	CS(=O)(=O)Nc1cccc(-c2cnc3c(Nc4cccc(OC(F)(F)C(F)F)c4)nccn23)c1	-7	-3
104	Cc1noc(C)c1CC(=O)N1CCCC(Cn2ccnc2C)C1 (configuration not stated)	-1	1
105	CCNC(=S)NN=C(C)c1ccc(Cl)s1	1	1
106	CCCC(=O)OCC(O)CN(CCOC)Cc1cccn1C (configuration not stated)	31	20
107	CC1(C(=O)N2Cc3ccccc3C2)CCN1C(=O)C/C=C/c1ccccc1 (configuration not stated)	-1	-6
108	CCNC(=O)N1CCC2(CC1)SCCN2C(=O)c1cccc(OC)c1	8	14
109	Cc1nn(C)c2sc(C(=O)N3CCC(C(=O)O)CC3)cc12	4	6
110	COc1ccc(-c2cnn(-c3ccccc3)c2N)cc1OC	3	5
111	COc1ccc(CCNC(=O)CN2CN(c3ccccc3)C3(CCN(C(=O)c4ccc([N+](=O)[O-])cc4)CC3)C2=O)cc1OC	19	12
112	O=C1NCCN2CCN(C(=O)CCc3nc(-c4ccccc4)no3)CC12 (configuration not stated)	3	5
113	Cn1c(COc2ccc(Cl)cc2)nnc1SCCOc1ccc(Cl)cc1	13	8
114	Cc1ccc(-n2c(CNC(=O)Nc3ccc(Cl)cc3Cl)nnc2SCc2ccccc2C)cc1	-7	-7
115	COC(=O)c1oc(CN(C)Cc2cccc(C(F)(F)F)c2)cc1C	12	13
116	CCN1CCN(CCCNC(=O)c2cc3ccc(C)cc3nc2C)CC1	-7	-7
117	CN1C(=O)CC(C(=O)O)C1c1ccc(Cl)c(F)c1 (configuration not stated)	-2	-2
118	Cc1c(C(=O)Nc2ccc([N+](=O)[O-])cc2)oc2ccccc12	3	1
119	Cc1cc(C)cc(N2CCN(Cc3cccnc3)CC2=O)c1	7	8

# Compound activity: PubChem BioAssay, Fisher Drug Discovery Resource Center
